# Screening results as filed in PubChem.
# PrP 5UTR inh = inhibition of PrP 5' UTR reporter expression. cell-based PrP 5' UTR mRNA reporter, plate reader. inhibition, % (test concentration not listed). hit rate 0.35% among 340,000. AID 488862, 2010;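 active means every replicate at 50% or more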;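 further: 0 = median of the neutral control wells; tested in H4 reporter cells; numbers are from one replicate; inactives centre near -14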
# Bead autofluor = compound fluorescence in toxin protease inhibitor counterscreen | compound autofluorescence counterscreen, microsphere flow cytometry; hits give high values | hit rate 3.1% among 360,000 | fluorescence intensity (test concentration not listed);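 active means at least 3 SD above the mean of all compounds, about 16000 in these data; inconclusive means too few beads counted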;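 further: 100 nL of 1 mM stock went into each well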
# Sa RN4220 lethal = growth inhibition of S. aureus RN4220, primary screen, OD600; 16 h; inhibition, % (test concentration not listed); hit rate 0.33% among 330,000;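 active means z-score of -3 or lower and OD600 up to 0.18 on both plates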;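 further: plate controls were untreated cells for no effect and reference antibiotic for full effect; stock transfer was 100 nL into about 80 µL; one replicate is shown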
# Sa ugtP lethal = growth inhibition of ugtP-null S. aureus, primary screen, RN4220 ugtP deletion, OD600; hit rate 0.54% among 330,000; 16 h; some inactives read as strong as hits; growth inhibition, % (no concentration beside the values);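 active means z-score under -3 and OD600 up to 0.15 on both plates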;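 further: plate controls were untreated wells for no effect and antibiotic for full effect; wells of about 80 µL received 100 nL stock; the first replicate is given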
# BJeLR lethal = MLPCN primary cell-based screen for lethality selective to Ras in HRASV12 cells; inhibition, % (concentration not given with the values); hit rate 0.17% among 300,000; BJeLR (HRASV12) viability, CellTiter-Glo ATP luminescence, 48 h; reference of the scale not given here; AID 1554, 2009;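 active means replicate mean above 50%; inconclusive means above 50% but judged a plate artefact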;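 further: 50 nL library stock added to about 25 µL; numbers are from one replicate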
# Mtb hypoxia inh = PubChem AID 1159583 | M. tuberculosis hypoxia-regulated fluorescent reporter, fluorescence | fluorescence inhibition, % (concentration not given with the values) | hit rate 0.1% among 300,000;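 active means 35 to 45% if threefold the growth effect, above 45% if 1.5-fold the growth effect; inactive means the rest, general growth blockers included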;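 further: wells of about 50 µL received 100 nL stock; 0% = vehicle wells and 100% = reference inhibitor wells; whole bacteria with a GFP reporter of the hypoxia response; strong numbers were not always called active; many hits fall short of the cut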
# Mtb hypoxia inh growth = also measured in Mtb hypoxia inh; calls as there; growth inhibition, %; measured here: M. tuberculosis growth (absorbance);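 0% = vehicle and 100% = reference antibiotic; read after six days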
# Active calls of the source: *; ? = inconclusive; nt = not tested or not shown.
smiles	PrP 5UTR inh	Bead autofluor	Sa RN4220 lethal	Sa ugtP lethal	BJeLR lethal	Mtb hypoxia inh	Mtb hypoxia inh growth
COc1ccc(C(=O)c2ccc([N+](=O)[O-])cc2)cc1S(=O)(=O)N1CCC(C(=O)O)CC1	-17	3748	2.4	12	0	5	-11
CCCN1C(=O)/C(=C/C=C2\N(CC)c3ccccc3C2(C)C)SC1=S	-14	10004	-1.6	-10	-4	nt	nt
COC(=O)Cc1csc(Nc2c(C)n(C)n(-c3ccccc3)c2=O)n1	-18	10588	3.6	5	4	3	4
C=CCN1C(=O)C(Cc2ccc(OC)cc2)S/C1=N/N=C/c1ccco1 (configuration not stated)	-13	9755	nt	nt	5	nt	nt
COC(=O)NN=Cc1c(C)nn(-c2cccc(Cl)c2)c1Cl	nt	nt	10	-10	nt	4	5
FC(F)(F)c1cccnc1N1CCN(c2ncnc3nc[nH]c23)CC1	-17	6007	7.4	8	-7	3	4
Cc1cc2oc(=O)cc(-c3ccccc3)c2c(C)c1-c1ccc(O)cc1	-11	3088	10	4	nt	22	21
O=C(CNC(=O)C12CC3CC(CC(C3)C1)C2)N1CCN(S(=O)(=O)/C=C/c2ccccc2)CC1	-6	2016	0.2	0	-5	8	1
COc1cccc(Oc2ccc(N)cn2)c1	-21	9527	1.8	6	0	6	3
CC(C)CC(=O)NC1(C(F)(F)F)C(=O)Nc2c1c(=O)[nH]c(=O)n2Cc1ccco1 (configuration not stated)	-16	3853	-1.1	7	22	nt	nt
CC[C@@H]1CCCCc2ccccc2[C@@H](C(=O)C[C@H](O)CC(C)=O)OC1=O	-16	3482	4.5	-1	nt	-9	8
CCOc1ccccc1NC(=O)C(C)N1C(=O)c2ccccc2S1(=O)=O (configuration not stated)	1	4945	1.0	0	-1	7	-2
CNC(=O)N(C1=NCC(C)(C)S1)c1ccc(F)c(Cl)c1	-15	4387	-16	6	6	7	5
Cc1cc(Br)c(NC(=O)CN(C)CCOc2ccccc2)c(Br)c1	-24	3662	nt	nt	-3	nt	nt
CC(=O)c1ccc(OCCCC(=O)NNC(=O)c2ccccn2)cc1	-44	4306	3.8	1	nt	17	16
O=C(O)/C=C/C(=O)N1CCN(S(=O)(=O)c2cccc(C(F)(F)F)c2)CC1	-26	4076	1.6	1	-2	-5	-2
O=C(/C=C\c1ccco1)Nc1cc([N+](=O)[O-])ccc1F	5	2054	3.3	0	62*	6	6
COCCN(C(=O)COC(=O)CSc1ccc(Cl)cc1)c1c(N)n(CC(C)C)c(=O)[nH]c1=O	-2	5665	-4.8	2	nt	3	-1
Cc1ccc(C(=O)N2CCCC(c3ccc(Cl)cc3)=N2)cc1	-35	5204	-1.5	-1	6	2	5
Cc1ccc(CN2CCN(C(=O)CCC(=O)Nc3nnc(C(C)C)s3)CC2)c(C)c1	2	5953	1.7	-1	6	5	16
Cc1ccccc1CCNC(=O)C1CCC(=O)N(Cc2ccc(Cl)cc2)C1 (configuration not stated)	-26	5881	-5.2	3	5	7	0
CCc1nc(SCC(=O)Nc2cc(C)ccc2OC)c2c(C)c(C)sc2n1	-13	3453	-1.8	7	-4	5	3
CNc1ccccc1C(=O)OCC(=O)N(CCOC)c1c(N)n(CC(C)C)c(=O)[nH]c1=O	-18	6287	0.7	7	-5	-2	10
O=C(Cc1ccccc1)Nc1nnc(SCC(=O)NC2CCCC2)s1	-13	4186	3.3	6	49	13	9
O=C(CSc1nnc(COc2ccc(Cl)cc2)n1Cc1ccco1)N1CCNC1=O	-25	5556	-2.8	7	nt	5	-11
O=C(O)c1cccc(NS(=O)(=O)c2cccc(C(=O)Nc3ccccc3[N+](=O)[O-])c2)c1	-2	3417	3.5	7	-11	-10	-6
CCOc1ccc(CCNC(=O)COC(=O)C2CCN(c3ccc(C(F)(F)F)cn3)CC2)cc1OCC	18	7304	-2.6	0	6	-11	-3
COc1ccc(C(=O)NCCCSC)cc1OC1CCN(C(C)C)CC1	-17	15865	-1.0	-2	1	-11	11
CCOC(=O)CC1c2ccccc2S(=O)(=O)N1C1CC1 (configuration not stated)	nt	nt	-2.4	-13	nt	3	12
Cc1cc(C)nc(Oc2ccc(Br)cc2)n1	-14	3549	2.3	1	8	16	8
Cc1ccc(S(=O)(=O)N(C)C)cc1NC(=O)COC(=O)c1ccc(Cl)cc1	0	4211	6.1	6	-8	10	-1
CCN(CC)CCN(C(=O)/C=C/c1cccs1)c1nc2ccc(OC)cc2s1	-19	5645	1.4	2	nt	-1	7
Cc1ccc(CN2CCNC2=O)cc1	-9	11274	1.0	6	3	-1	1
CSc1cccc(NC(=S)N(CCC(C)C)C2CCN(C(C)C)CC2)c1	14	3823	4.7	-70	6	9	-1
Cc1cc(N2CCN(C)CC2)nc2ccc(NC(=S)N3CCC4(CC3)OCCO4)cc12	-10	3382	2.6	2	-8	-2	0
C[C@@H]1CN([C@H](C)CO)C(=O)c2cc(NC(=O)Nc3ccc(F)cc3)ccc2O[C@H]1CN(C)C(=O)Nc1ccc(C(F)(F)F)cc1	-20	3923	-5.7	2	nt	-2	4
CC(=O)Nc1cccc(-c2csc(NCc3ccccc3)n2)c1	-40	3415	4.9	-5	19	6	1
COc1cc(C=Nn2nnnc2N)ccc1O	nt	nt	2.3	-2	nt	8	7
CCC(=NCCc1ccccc1)c1c(O)n(C2CCCCC2)c(=O)[nH]c1=O	-20	10025	3.6	-1	0	17	10
Cc1ccc(-c2cc(-c3nnc(SCC(=O)NCC(C)C)n3N)c3ccccc3n2)cc1	-7	3101	-2.4	6	10	nt	nt
O=C(CCC(=O)OCC(=O)c1ccc(-c2ccccc2)cc1)Nc1cccc(Cl)c1	-18	nt	8.2	4	4	7	3
O=C(Nc1ccccc1C(=O)N1CCOCC1)C1COc2ccccc2O1 (configuration not stated)	-14	15518	3.7	3	2	-3	-1
Cc1ccc(Nc2nc(N)nc(-c3oc4ccccc4c3C)n2)cc1	70*	4600	-3.7	7	36	-1	2
O=C(O)c1cc2c(cc1Br)OCCCO2	-15	2144	3.0	2	2	-9	-11
CCc1cc(=O)oc2cc(OCc3ccc(C(=O)O)o3)ccc12	-12	4131	nt	nt	-6	nt	nt
CCCCC(=O)NC(=S)Nc1cccc(NC(=O)CC)c1	-17	8556	-2.9	39	0	-2	2
O=C1CC(Cc2ccccc2)C(=O)N1c1ccccn1 (configuration not stated)	-17	3920	2.0	4	1	10	-8
COc1cc(CNc2cccc(C(=O)O)c2)cc(Br)c1OCC(=O)NC(C)(C)C	-6	2299	7.6	-7	-9	4	5
Cc1cc(NC(=O)CCC(=O)N(Cc2ccco2)C(C(=O)NC2CCCCC2)c2ccccc2)no1 (configuration not stated)	-5	3108	-7.9	-9	-6	3	6
O=C(Nc1ccccc1Cl)c1ccc(S(=O)(=O)N2CCOCC2)cc1	-2	4055	-1.6	7	0	9	5

# (further entries)
smiles	PrP 5UTR inh	Bead autofluor	Sa RN4220 lethal	Sa ugtP lethal	BJeLR lethal	Mtb hypoxia inh	Mtb hypoxia inh growth
Cc1cccc(NC(=O)c2c(O)c3ccccc3[nH]c2=O)c1	-59	3051	-2.5	8	8	6	-8
COC(=O)C(C(=O)OC)C(C(=O)OC)C(C(=O)OC)C(=O)OC	-16	4003	-3.6	-4	-13	nt	nt
O=C(Nc1ccccc1)C1=C[C@@H](c2ccc(C(F)(F)F)cc2)C[C@@H](OCc2ccc(CO)cc2)O1	-11	4182	nt	nt	-4	nt	nt
COc1ccc([N+](=O)[O-])cc1NS(=O)(=O)c1cccc(C(=O)OC2CCOC2=O)c1 (configuration not stated)	13	2942	5.1	6	nt	7	-3
COc1ccc([C@H]2/C=C\CN(C(=O)c3ccccc3)[C@@H](C)C(=O)N2Cc2ccc(F)cc2)cc1	-23	4144	nt	nt	6	nt	nt
CCn1cc(Br)c(C(=O)Nc2ccc(Cl)c(Cl)c2)n1	-46	4305	-4.7	-7	-14	-4	2
O=C(NN=Cc1cccc([N+](=O)[O-])c1)c1cccc(Br)c1	nt	nt	1.2	-3	nt	11	-7
O=c1c(Cc2ccc(Cl)cc2Cl)c(O)ccn1Cc1ccc(Cl)cc1	-40	2735	10	-29	-2	nt	nt
CC(=O)N1CCC(=NNS(=O)(=O)c2cccc([N+](=O)[O-])c2)CC1	-20	9361	0.9	0	nt	-1	6
Clc1ccc2ccc3cccnc3c2n1	3	3845	2.7	3	2	nt	nt
COc1ccc(/C=C/C(=O)NC(=S)Nc2ccc(S(=O)(=O)Nc3ccc(OC)nn3)cc2)cc1	-12	9706	13	2	-22	16	4
COC(=O)C(NC(=O)CCc1c(C)nc2c(c(C)nn2-c2ccccc2)c1C)C(C)C (configuration not stated)	-12	2932	3.2	1	-2	-4	-4
COc1ccc(NC(=O)CN2C(=O)NC3(CCCCC3C)C2=O)cc1OC (configuration not stated)	-14	3519	3.3	3	nt	7	-1
CCOC(=O)c1cccc(NC(=O)C2CCN(S(=O)(=O)c3cnc[nH]3)CC2)c1	-8	4116	2.2	0	10	4	1
CC1(C)NC(=O)N(CC(O)COc2ccccc2C(=O)N2CCCCC2)C1=O (configuration not stated)	-5	2658	1.6	-6	-4	nt	nt
CN1C(C(=O)NCc2cccs2)=CC(c2ccc(F)cc2)=NS1(=O)=O	-9	5496	1.9	3	-2	9	-3
O=C(Nc1ccc(NC(=O)c2ccccc2O)cc1)Nc1ccc(F)cc1F	-20	4229	7.2	-5	4	8	10
Cc1cc(C)c(C(=O)COC(=O)c2cc([N+](=O)[O-])ccc2N2CCOCC2)cc1C	-23	?	nt	nt	-7	nt	nt
CC(=O)Oc1ccc(-c2csc(Nc3cccnc3)n2)cc1	-25	4331	3.1	5	-12	2	3
O=C(O)c1cccc(N2C(=O)C3C4C=CC(C4=C(c4ccccc4)c4ccccc4)C3C2=O)c1 (configuration not stated)	-22	4589	6.2	10	0	-2	4
COc1ccc(-c2[nH]ncc2C=O)cc1	8	2494	nt	nt	-5	nt	nt
CCOC(=O)N1CCC(NC(=O)CC(NS(=O)(=O)c2ccc(C)cc2)c2ccco2)CC1 (configuration not stated)	-25	5739	1.5	-2	0	nt	nt
O=C(CCS(=O)(=O)c1ccccc1)Nc1ccc(N2CCN(Cc3ccccc3)CC2)cc1	-11	7643	1.3	4	nt	6	4
Cc1ccc2c(c1)N(C(=O)CCC(=O)NCCCN1CCOCC1)CCO2	-39	5638	2.7	-6	10	6	7
CC(=O)Nc1cccc(N2CCCC2=O)c1	-23	25393*	1.0	4	-1	2	-2
CC(C)(C)c1cc(NC(=O)c2cccnc2)no1	-29	8014	5.5	10	3	4	5
O=C(CSCc1c(Cl)cccc1Cl)Nc1ccc2c(c1)OCO2	1	2541	-3.5	-9	5	nt	nt
CCCCCCNC(=O)N1C/C=C\C(c2ccc(OC)cc2)N(Cc2ccc(F)cc2)C(=O)C1 (configuration not stated)	5	3987	nt	nt	0	nt	nt
CCOc1ccc(S(=O)(=O)N2CCN(c3ccccc3)CC2)c2cccnc12	-68	4833	2.4	0	-2	5	15
CCOC(=O)c1ccc(NC(=O)Nc2cc(C)on2)cc1	-35	16267*	7.3	-5	1	4	5
COc1cc(/C=C2\SC(=N)N(c3ccc4c(c3)OCO4)C2=O)cc(OC)c1O	-12	2494	6.4	-4	0	3	14
CC1(C)CC2(CCO1)OC(=O)CC2C(=O)Nc1ccc(Cl)cc1[N+](=O)[O-] (configuration not stated)	-14	5447	2.0	1	2	15	20
NC(=S)NN=C1c2ccccc2-c2ccccc21	-23	3939	-0.2	-4	-5	13	5
CNC(=O)/C(C#N)=C\c1cc(C)n(-c2ccc(N3CCOCC3)cc2)c1C	-8	4678	1.1	1	7	-10	4
CCOc1ccc(NC(=O)COC(=O)Cn2cnnn2)cc1OCC	6	23264*	0.1	-4	-12	-3	5
Cc1ccc2cc(CCl)c(Cl)nc2c1	-13	5172	5.8	-8	13	-13	12
CC(=O)Nc1ccccc1OCc1nnc(-c2cccs2)o1	-8	3513	-0.6	8	4	11	3
